LASV entry inh = qHTS for Inhibitors of binding or entry into cells for Lassa Virus; actives 1.2% (n = 300,000); AID 540256, 2011; Potency, µM (top dose mostly 37.9 µM), for inactives: at the top dose activity change, negative = inhibition, actives largely listed as inhibitors; Lassa virus pseudotype entry inhibition, cell reporter; control for the full effect not named in the record; active means well fitted inhibition curve with a large enough effect; inconclusive means small, poorly fitted or top-dose-only effect, or effect the other way; inactive means flat fitted curve, though single readings scatter; tested in HEK293 cells; note: % is set by controls: 0 for no effect and ±100 for the full control effect; nearly all actives have a fitted effect of over 50% in size; luciferase read-out
MARV entry inh = qHTS for inhibitors of binding or entry into cells for Marburg Virus; Marburg virus pseudotyped entry inhibition, cell reporter; control for the full effect not named in the record; about a third of the inactives were read at about 46 µM; actives 1.8% (n = 300,000); Potency, µM (top dose mostly 37.8 µM), without a hit: top-dose activity change, negative = inhibition, most hits filed as inhibitors; active = well fitted inhibition curve with a large enough effect; inconclusive = small, poorly fitted or top-dose-only effect, or effect the other way; inactive = flat fitted curve, though single readings scatter; tested in HEK293 cells; about a fifth of its hits are not listed in these tables; note: % is set by controls: 0 for no effect and ±100 for the full control effect; luciferase read-out
NS1 inh = qHTS Assay for Inhibitors of Influenza NS1 Protein Function. S. cerevisiae slowed by influenza A NS1, growth recovery by OD600. Potency, µM (top dose mostly 46.1 µM), for the others: at the top dose activity, positive = more growth. actives 0.4% (n = 270,000). AID 2326, 2010; note: actives are rising curves; nearly all actives have a fitted effect of over 50% in size
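In this qHTS, NS1 from influenza A is expressed in budding yeast, where it slows growth. Cells are switched from glucose to 2% galactose medium (pH 6.0, -URA), treated with compound, and growth recovery is read at OD600.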
RE007 growth inh = qHTS Assay for Inhibitors of the HIV-1 protein Vpr; S. pombe RE007 Vpr strain, BacTiter-Glo ATP luminescence, 24 h; control for the full effect not named in the record; Potency, µM (titrated, usually from 92.2 µM), without a hit: top-dose activity change, negative = less growth; actives 0.21% (n = 360,000); active = well fitted falling curve with a large enough effect; inconclusive = small, poorly fitted or top-dose-only effect; inactive = no such curve, though single readings can be large or run the other way;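 note: % is set by controls: 0 for no effect and ±100 for the full control effect; nearly all actives have a fitted effect of over 50% in size; the assay follows cell death caused by Vpr and the record does not say whether a fall means rescue or toxicity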
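Fission yeast RE007 carrying one integrated HIV-1 vpr copy, seeded at OD 0.01 in PMG+AL medium with 23 nL pinned compound. Grown 24 h at 30 degrees; viability read by BacTiter-Glo luminescence after 5 min.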
SARS PLP yeast = qHTS of Yeast-based Assay for SARS-CoV PLP; S. cerevisiae expressing SARS-CoV PLpro, growth rescue; control for the full effect not named in the record; Potency, µM (highest dose often 32.9 µM), for inactives: top-dose activity, positive = growth rescue; actives 0.19% (n = 330,000); note: 0% is about no effect; nearly all actives have a fitted effect of over 55% in size; growth read by luminescence after 48 h
Cruzain inh Det = qHTS Assay for Promiscuous and Specific Inhibitors of Cruzain (with detergent) | Cruzipain (Trypanosoma cruzi), P25779 | purified cruzain, Z-FR-AMC fluorescence, 0.01% Triton | Potency, µM, for the others: max response, negative = inhibition, usual class: inhibitors | actives 0.43% (n = 200,000); active = well fitted curve in the direction sought with a large enough effect; inconclusive = small, poorly fitted or top-dose-only effect, or another doubt; inactive = no such curve, though single readings can be large; an effect the other way counts as inactive or inconclusive;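 note: plate controls were neutral wells for no effect and buffer without enzyme for full effect; nearly all actives have a fitted effect of over 40% in size; top concentration of the series not given in the record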
Target sequence (P25779 123-467 limits assumed): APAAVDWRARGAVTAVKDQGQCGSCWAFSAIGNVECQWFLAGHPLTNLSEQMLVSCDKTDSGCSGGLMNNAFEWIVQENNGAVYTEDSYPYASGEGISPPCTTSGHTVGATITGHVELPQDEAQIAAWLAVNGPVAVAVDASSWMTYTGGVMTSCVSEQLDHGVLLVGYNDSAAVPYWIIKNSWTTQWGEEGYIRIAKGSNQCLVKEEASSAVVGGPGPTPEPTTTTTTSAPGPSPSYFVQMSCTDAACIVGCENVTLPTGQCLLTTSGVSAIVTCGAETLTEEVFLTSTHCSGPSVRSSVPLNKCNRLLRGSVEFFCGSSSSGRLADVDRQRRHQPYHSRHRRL
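Sodium acetate buffer (100 mM, pH 5.5) containing 5 mM DTT and 0.01% Triton X-100 hosted 1.5 nM cruzain and test compound for 15 min at room temperature. Cleavage of 2 uM Z-FR-AMC was then tracked by fluorescence.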
StopGo reporter = High Throughput Screening for Foot and Mouth Disease Virus Antivirals; Potency, µM (titrated, usually from 57.9 µM), for inactives: at the highest dose signal change, negative = less light; human cells with a luciferase reporter of 2A StopGo recoding; control for the full effect not named in the record; AID 1159524, 2015; actives 1.2% (n = 410,000); active = well fitted falling curve with a large enough effect; inconclusive = small, poorly fitted or top-dose-only effect; inactive = no such curve, though single readings can be large or run the other way; tested in HEK293T cells; note: % is set by controls: 0 for no effect and ±100 for the full control effect; nearly all actives have a fitted effect of over 45% in size; luciferase light after 4 h
Cruzain noTriton = qHTS Assay for Promiscuous and Specific Inhibitors of Cruzain (without detergent) | Cruzipain (Trypanosoma cruzi), P25779 | purified cruzain, Z-FR-AMC fluorescence, no detergent | Potency, µM, without a hit: max response, negative = inhibition, usual class: inhibitors | actives 2.3% (n = 200,000) | AID 1476, 2009; active = well fitted curve in the direction sought with a large enough effect; inconclusive = small, poorly fitted or top-dose-only effect, or another doubt; inactive = no such curve, though single readings can be large; an effect the other way counts as inactive or inconclusive;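 note: plate controls were enzyme without inhibitor for no effect and buffer without enzyme for full effect; nearly all actives have a fitted effect of over 40% in size; top concentration of the series not given in the record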
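Purified cruzain at 1.5 nM, pre-incubated 15 min with compound at room temperature in 100 mM sodium acetate pH 5.5, 5 mM DTT, 0.00005% Triton X-100. Reaction started with 2 uM Z-FR-AMC; AMC fluorescence increase over 60 s gives rate.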
The depositor's hits bear a star; ? = inconclusive; . = not tested or not shown; [ ] = dose if it differs, or a comment. Unless noted, calls come from the whole dose curve; as a rule, active means well fitted rising curve with a large enough effect; inconclusive means small, poorly fitted or top-dose-only effect; inactive means no such curve, though single readings can be large or run the other way. Potency is the fitted concentration of half-maximal effect.

Start of the listing, in advance, 4 compounds:
SMILES	LASV entry inh	MARV entry inh	NS1 inh	RE007 growth inh	SARS PLP yeast	Cruzain inh Det	StopGo reporter	Cruzain noTriton
Cc1ccc(NC(=O)CNC(=O)N2CC(=O)Nc3ccccc32)cc1F	.	.	4%	10%	1%	.	-20%	.
Cc1cc(C)c(C#N)c(SCc2ccccc2C(=O)O)n1	7%	5%	-11%	1%	-2%	-2.7%	1%	-2%
Cc1ccc(C(=O)OCCN2CCN(c3ncc(C(F)(F)F)cc3Cl)CC2)cc1	3%	-17%	-1%	-4%	-12%	-2.6%	-5%	23%
CC(C)N1C/C(=C/c2ccsc2)C(=O)/C(=C/c2ccsc2)C1	4µM*	?	-10%	-16%	22µM*	-5.4%	16µM*	14%

Main list, previewed entries included:
SMILES	LASV entry inh	MARV entry inh	NS1 inh	RE007 growth inh	SARS PLP yeast	Cruzain inh Det	StopGo reporter	Cruzain noTriton
Cc1ccc(NC(=O)CNC(=O)N2CC(=O)Nc3ccccc32)cc1F	.	.	4%	10%	1%	.	-20%	.
Cc1cc(C)c(C#N)c(SCc2ccccc2C(=O)O)n1	7%	5%	-11%	1%	-2%	-2.7%	1%	-2%
Cc1ccc(C(=O)OCCN2CCN(c3ncc(C(F)(F)F)cc3Cl)CC2)cc1	3%	-17%	-1%	-4%	-12%	-2.6%	-5%	23%
CC(C)N1C/C(=C/c2ccsc2)C(=O)/C(=C/c2ccsc2)C1	4µM*	?	-10%	-16%	22µM*	-5.4%	16µM*	14%
Cn1c(N/N=C/c2cccs2)nc2c1c(=O)n(Cc1ccccc1)c(=O)n2C	1%	?	17%	.	10%	-10%	?	?
COC(=O)COc1ccc(S(=O)(=O)Nc2cc([N+](=O)[O-])ccc2C)cc1	16%[46.1 µM]	8%[46.1 µM]	-3%	-13%	-1%	.	6%	.
CCOC(=O)[C@@H]1C(c2c(OC)cc(OC)cc2OC)=NO[C@@H]1C(=O)OCC	-4%	1%	-9%	7%	17%	0.5%	-2%	10%
Cc1ccc(-n2cc(C(=O)OCc3ccc(F)c(F)c3)c3ccccc3c2=O)cc1	23%[46.1 µM]	.	.	.	.	-0.2%	0%	-7%
O=C(Nc1ccc(OC(F)(F)F)cc1)Oc1ccccc1N1CCOCC1	.	.	-74%	-5%	-10%	.	-16%	.
CN(C)c1cccc(C(=O)OCc2cc(=O)oc3cc(O)ccc23)c1	?	?	-3%	12%	-6%	-15%	5%	-7%
CCN(C(=O)C1CCN(S(=O)(=O)c2ccc3c(c2)oc(=O)n3C)CC1)c1cccc(C)c1	.	-1%	10%	-5%	-8%	0.5%	-23%	23%
Cc1ccc(S(=O)(=O)n2nc(C)c(S(=O)(=O)N3CCCCCC3)c2C)cc1	1%[46.1 µM]	.	.	.	.	1.9%	2%	-10%
Clc1ccc(SCCn2ccnc2)cc1	1%	-25%	-10%	26%	-2%	-0.9%	-3%	-9%
O=C(CN1C(=O)COc2ccc(Cl)cc21)N1CCc2ccccc21	-27%	12%	6%	9%	7%	13%	8%	-25%
O=C(Nc1ccccc1Cl)c1ccc(S(=O)(=O)NCC2CCCO2)cc1 (configuration not stated)	-14%	1%[46.1 µM]	-1%	4%	-6%	.	9%	.
O=C(O)COc1ccccc1C=NNc1ccc([N+](=O)[O-])cc1S(=O)(=O)Nc1ccc(Cl)cc1	15%[46.1 µM]	1%[46.1 µM]	.	10%	?	.	39%[activator]	.
Cc1c(-c2ccccc2)nc2ccccc2c1C(=O)O	16%	29%	10%	7%	3%	0.6%	5%	7%
CCOC(=O)C(CC)Sc1nc2c(c(=O)[nH]c(=O)n2C)n1C/C=C(/C)Cl (configuration not stated)	?	?	-7%	-22%	-4%	-5.6%	?	4%
Cn1c(N)c(C(=O)COC(=O)CCCc2nc3ccccc3s2)c(=O)n(C)c1=O	-10%	6%[14.2 µM]	.	-11%	2%	.	20%	.
CSc1ccc(CCNC(=O)c2ccc(-c3nc(COc4ccccc4)c(C)o3)cc2)cc1	2%[46.1 µM]	.	.	.	.	-1.9%	-13%	3%
CN(C)CCn1c2c(c(SCC(=O)Nc3ccccc3C(F)(F)F)nc1=O)CCCC2	14%[46.1 µM]	29%	.	-17%	0%	.	8%	.
CCOC(=O)c1[nH]c(C)c(C(=O)N2CCN(c3ccccc3)CC2)c1C	9%	-18%	-53%	2%	0%	1.9%	-7%	5%
Cn1c(SCCSc2nnc(-c3ccccc3)n2C)nnc1-c1ccccc1	.	5%	3%	.	-3%	-2.6%	.	1%
CCN=C1S/C(=C\c2ccc(OCC)c(OC)c2)C(=O)N1CC	?	?	6%	3%	-25%	-8.5%	-28%	6%
O=S(=O)(Nc1ccc(Cl)nn1)c1ccccc1	.	.	5%	-6%	0%	.	5%	.
Cn1c(SCc2c(Cl)cccc2Cl)nnc1-c1ccc2nonc2c1	-9%	-1%[46.1 µM]	-7%	10%	-1%	.	15%	.
COC(=O)c1ccc(C(C(=O)NC2CCCCC2)N(Cc2ccccc2)C(=O)Cc2cccs2)cc1 (configuration not stated)	?	-6%	2%	9%	-3%	-2.7%	31%[activator]	10%
Cc1ccccc1N(CC(=O)N1CCOCC1)S(C)(=O)=O	?	-4%[46.1 µM]	-4%	16%	0%	.	19%	.
O=C(c1cccc(C(F)(F)F)c1)C1CCCN(C(=O)CCc2cnccn2)C1 (configuration not stated)	0%	19%[46.1 µM]	4%	-21%	0%	.	-6%	.
Cc1c(C(=O)Nc2ccc(Cl)cc2)c2ccccn2c1C(=O)c1ccccc1	-28%	-20%[46.1 µM]	-6%	-1%	13%	0.4%	-1%	?
CCn1cc(/C=N\NC(=O)c2c[nH]c3ccccc23)c(C)n1	?	16%	16%	0%	17%	-2.7%	56%[activator]	-10%
O=C(NCc1cccs1)C1CCN(C(=O)N2CCOc3ccc(Cl)cc32)CC1	?	.	.	.	.	-7.2%	-10%	?
O=C(Nc1ccc(Oc2ccc(Cl)cc2)c(Cl)c1)c1cc(I)cc(I)c1O	.	.	-3%	10%	-33%	.	?	.
NC(=O)COC(=O)C(Cc1ccccc1)NS(=O)(=O)c1ccccc1F (configuration not stated)	3%	?	14%	-1%	8%	2.3%	-20%	-8%
Cc1cc(C)c2nc(N(Cc3cccnc3)C(=O)CCOc3ccccc3)sc2c1	2%[46.1 µM]	.	.	.	.	-1.3%	-10%	-18%
Cc1cc(S(=O)(=O)NCCc2ccccc2)c(C)s1	-3%	7%	-4%	-4%	-32%	3.8%	66%[activator]	-1%
Cc1cc(=O)oc2c(CN(CC(C)C)CC(C)C)c(O)ccc12	-3%	?	1%	-11%	0%	25µM*	-2%	?
CCCC(=O)NC(c1ccccc1OC)c1ccc2cccnc2c1O (configuration not stated)	?	?	-42%	-24%	-3%	.	-12%	.
CCn1c(=O)c2ccccc2n2c(SCC(=O)N3CCCc4ccccc43)nnc12	-11%	-19%	3%	2%	1%	1.4%	9%	3%
CC(C)N(Cc1ccccc1)C(=O)c1ccc2c(c1)OCO2	-13%[46.1 µM]	16%[46.1 µM]	10%	1%	-7%	.	-8%	.
Cc1ccc(-c2csc(C(C#N)=C(O)CN3CCN(C(=O)c4ccco4)CC3)n2)cc1	-28%[46.1 µM]	0%[46.1 µM]	.	8%	.	.	7%	.
Nc1nc(NC(=O)C(Cl)(Cl)Cl)nn1-c1ccccc1	?	8%	-4%	-4%	-17%	-1.4%	14%	7%
CC1(C)CC2CC(C)(CN2S(=O)(=O)c2cccc(C(=O)OCC(N)=O)c2)C1 (configuration not stated)	0%[46.1 µM]	1%	.	2%	-3%	.	14%	.
COc1ccc(-c2nc(C)sc2CC(=O)O)cc1OC	3%	25%[46.1 µM]	.	?	1%	.	-6%	.
COc1ccc(-c2cc(=O)oc3cc(OC(C)C(=O)Nc4ccc(CN5CCOCC5)cc4)ccc23)cc1 (configuration not stated)	-29%[46.1 µM]	?	-14%	8%	-4%	.	-21%	.
CC(=O)Nc1ccc(-c2csc(-c3cccnc3)n2)cc1	?	?	12%	-5%	-4%	.	11%	.
O=C1CCc2cc(S(=O)(=O)N3CCC(C(=O)NCc4ccccn4)CC3)ccc2N1	8%	5%	-1%	.	-1%	1.8%	.	0%
Cn1c(SCC(=O)NCc2ccc3c(c2)OCO3)nnc1-c1c[nH]c2ccccc12	-8%	-4%	0%	-1%	10%	4.2%	-4%	5%
O=C(NCc1cccnc1)c1cn(CCc2ccccc2)nn1	7%	-2%[46.1 µM]	-2%	-3%	1%	-0.1%	-6%	-4%
COc1cccc(NC(=O)COC(=O)CCS(=O)(=O)c2ccc(C)cc2)c1	-6%	?	-4%	1%	-3%	.	-6%	.
O=C(c1cc(Sc2ccc(Cl)cc2)nc2ccccc12)N1CCN(c2ccccn2)CC1	?	-26%	.	28%	-17%	.	?	.
CC1CN(CC(=O)Nc2ccc(Br)cn2)CC(C)O1 (configuration not stated)	24%[46.1 µM]	22%[46.1 µM]	-1%	13%	1%	.	-3%	.
O=C(NCc1ccccc1Cl)c1csc2c1CCCCC2	16%	15%	0%	-9%	-1%	-3.0%	37%[activator]	0%
CC1(C)CC(=O)C2=C(C1)OC1=C(C2)C(=O)CC(C)(C)C1	-19%	19%	13%	8%	-8%	-0.7%	-6%	-9%
O=C(NCCOCCOCCNC(=O)c1ccccc1)c1ccccc1	0%	-5%[46.1 µM]	.	3%	-2%	.	10%	.
O=C1Nc2ccc(Br)cc2C(c2ccccc2)=NC1O (configuration not stated)	.	.	2%	-16%	1%	.	-13%	.

Screens from PubChem.
